# ClpP mod – qHTS Assay for Activators of ClpP. purified B. subtilis ClpP, FRET peptide cleavage, 20 min. Potency, µM (series often up to 57.5 µM), for the others: at the highest dose activity change, negative = active. hit rate 1.9% among 340,000. AID 651965, 2013; active = well fitted falling curve with a large enough effect; inconclusive = small, poorly fitted or top-dose-only effect; inactive = no such curve, though single readings can be large or run the other way; further: the source files actives as falling curves though it sought activators and does not explain the sign; nearly all actives have a fitted effect of over 65% in size; many hits overshoot -100%
# Target sequence (P80244 whole entry, looked up): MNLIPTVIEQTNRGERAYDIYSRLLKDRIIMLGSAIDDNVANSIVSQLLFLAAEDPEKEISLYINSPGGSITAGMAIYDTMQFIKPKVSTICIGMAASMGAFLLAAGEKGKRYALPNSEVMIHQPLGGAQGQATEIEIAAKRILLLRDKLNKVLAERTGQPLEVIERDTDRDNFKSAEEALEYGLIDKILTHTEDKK
#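 ClpP 10 microg/mL final, pH 8 Tris/KCl buffer with BSA, glycerol, Tween-20; compound pinned in; FRET-FV substrate; RT 20 min; Ex320/Em430; ΔFRET vs ADEP 5.8 microM, DMSO, no enzyme.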
# The depositor's hits bear a star; ? = inconclusive. Potency means the concentration at half of the fitted maximal effect. An excerpt, so the mix of outcomes need not match the whole.
SMILES,ClpP mod
CCc1ccc(NC(=O)Cn2c(=O)n(-c3cc(C)cc(C)c3)c(=O)c3oc4ccccc4c32)cc1,-23%
Cc1cccc(-c2nc3c4c(-c5ccccc5)c(-c5ccccc5)oc4ncn3n2)c1,?
CC(=O)c1ccc(N2CCN(C(=O)CCS(=O)(=O)c3ccc4c(c3)oc(=O)n4C)CC2)cc1,-0.2%
N#Cc1c(-n2ncnc2-c2cccc(Cl)c2)sc2c1CCCCC2,-1.7%
COc1ccc(OC)c(CN2C(=O)CN(S(C)(=O)=O)CC2(C)C(=O)NCc2ccccc2)c1 (centres undefined),0.5%
CCC(=O)N1CCc2cc(CNC(=O)c3ccc(F)cc3)ccc21,-3.3%
Cc1ccc(Nc2nc(NCc3ccco3)nc3nccnc23)cc1,1.8%
CCCCN(CC)C(=O)CSc1nc2c(sc3ccccc32)c(=O)n1CCc1ccccc1,-3.6%
C(=Nc1ccc(/C=C/c2ccnc3ccccc23)cc1)c1cc2c3c(c1)CCCN3CCC2,-20%
CCCCN1C(=O)CN(C2CCCCCC2)C(=O)C1c1ccc(OCC)c(OC)c1 (centres undefined),1.9%
Cc1c(NC(=O)c2cc(-c3cccc(O)c3)on2)c(=O)n(-c2ccccc2)n1C,-0.6%
CCCCn1cc(S(=O)(=O)c2cc(C)ccc2C)c(=O)c2cc(F)c(N3CCC(C)CC3)cc21,-9.1%
COc1cc(Cl)c(C)cc1NC(=O)c1cc2c(=O)oc3ccccc3c2s1,-3.8%
COc1ccccc1Nc1sc(C(=O)c2ccc(C)cc2C)c(N)c1S(=O)(=O)c1ccccc1,-20%
O=C(Nc1ccc(Cl)cc1)N[C@H]1CC[C@H](CCn2cc(-c3ccccc3F)nn2)O[C@@H]1CO,1.9%
CCc1ccccc1NC(=O)c1ccc2c(c1)c(C)c(C)n2Cc1ccccc1,?
CN(C1CCCCC1)S(=O)(=O)c1ccc2c(c1)c(=O)c(C(=O)N1CCN(c3ccccc3)CC1)cn2C,1.5%
Cc1ccc(-c2nc3ccccn3c2Nc2ccccc2C)o1,3.8%
COc1ccc(S(=O)(=O)NCC(c2cccs2)S(=O)(=O)c2ccccc2)cc1OC (centres undefined),-0.6%
Cc1ccccc1CSc1cn(CC(=O)N2CCCCC2)c2ccccc12,1.3%
COc1cccc(C2=CC(c3ccc(OC)c(OC)c3OC)n3ncnc3N2)c1 (centres undefined),-0.2%
CCN(CC)S(=O)(=O)c1ccc(C(=O)Nc2nc3ccc(Cl)cc3s2)cc1,-0.1%
CC1CCCCN1C(=O)COC(=O)c1ccc(S(C)(=O)=O)c([N+](=O)[O-])c1 (centres undefined),-1.5%
Cc1ccc(N2C(=O)CSC23C(=O)N(CC(=O)Nc2ccccc2F)c2ccccc23)cc1C (centres undefined),-1.3%
COc1ccc(NC(=O)C(c2ccccc2F)n2c(=O)c(-c3cc4ccccc4[nH]3)nc3ccccc32)cc1 (centres undefined),-2.3%
COc1ccc(C(=O)NCCc2sc(-c3ccc(Cl)cc3)nc2C)c(OC)c1,3.9%
CN(C)c1ccc(/C=C2/CCc3ccccc32)cc1,0.2%
CCOC(=O)/C=C/c1cccc(OC)c1O,-0.9%
CCc1ccccc1NC(=O)c1cc(S(=O)(=O)N2CCCc3ccccc32)ccc1F,-1.0%
CCOc1ccc(-c2nnc(SCC(=O)NC(C)CC)nc2-c2ccc(OCC)c(OC)c2)cc1OC (centres undefined),-2.2%
Cn1c(=O)n(C)c2cc(NS(=O)(=O)c3ccc(C(C)(C)C)cc3)c(NCc3ccccc3)cc21,3.5µM*
COc1ccc(NC(=O)c2ccc3nc(C(C)C)oc3c2)cc1OC,2.2%
O=C(/C=C1\OCc2cc(OCc3ccccc3)ccc21)OCc1ccccc1,0.3%
CCOC(=O)[C@]12Cc3c(cc(OC)c(OC)c3OC)[C@H]1N(CCC(=O)OC)C(=O)c1cc(OC)ccc12,-1.7%
COC(=O)c1ccc(NC(=O)C(=O)NCCc2csc(-c3ccc(C(F)(F)F)cc3)n2)cc1,-1.0%
CCOC(=O)C1=C(CNCc2ccccc2)NC(=O)NC1c1ccc(C)cc1 (centres undefined),-2.9%
COc1ccc(C(=O)N2CCCCC2CCN2CCCCC2)cc1 (centres undefined),-0.8%
CC(C)CCn1nnc2sc(-c3ccccc3)cc2c1=O,-10%
CCCCN(CC)CCNC(=O)CCn1cnc2onc(-c3ccc(F)cc3)c2c1=O,-1.7%
COc1ccc(NC(=O)CSc2nc(-c3ccc(OC)cc3)cc(=O)[nH]2)cc1,-0.3%

# Ordered by heavy-atom count (ascending): some entries from above
SMILES,ClpP mod
CN(C)c1ccc(/C=C2/CCc3ccccc32)cc1,0.2%
COc1ccc(C(=O)N2CCCCC2CCN2CCCCC2)cc1 (centres undefined),-0.8%
Cc1ccc(N2C(=O)CSC23C(=O)N(CC(=O)Nc2ccccc2F)c2ccccc23)cc1C (centres undefined),-1.3%

# The list continues.
SMILES,ClpP mod
CCCCN(CC)CCNC(=O)c1cc2c(=O)oc3ccc(C)cc3c2s1,?
CCCCn1nnnc1C1(C)CCC(=O)N1Cc1cccc(F)c1 (centres undefined),-4.4%
CC1CCN(c2nc3ccc(C(=O)NCCc4ccc(S(N)(=O)=O)cc4)cc3s2)CC1,-0.5%
O=C(Cn1c(=O)n(-c2ccccc2Cl)c(=O)c2sc3ccccc3c21)NC1CCCC1,4.6%
Cc1nc(CC(=O)Nc2cc(Cl)ccc2C)cs1,-1.2%
CC(C)(C)c1ccc(C(=O)NCC(c2ccco2)S(=O)(=O)c2ccccc2)cc1 (centres undefined),1.3%
COC(=O)C[C@@H]1CC[C@@H](NS(=O)(=O)c2ccccc2OC)[C@@H](CO)O1,-2.1%
O=C(Cn1c(=O)n(Cc2ccccc2)c(=O)c2oc3ccccc3c21)Nc1ccc(Cl)cc1,-15%
COc1ccc(CN2C(=O)CSCC2(C)C(=O)Nc2ccc3c(c2)OCCO3)cc1 (centres undefined),-0.9%
CCCOc1ccc(-c2nc(SC)[nH]c(=O)c2C#N)cc1OC,-14%
Cc1ccc2ccc3cc(C(=O)N4CCN(c5ccccc5)CC4)nc3c2[nH]1,0.1%
CCCCC[C@H](C)N1C[C@H](COCc2ccccc2)Oc2cc(N3CCC[C@H]3C(N)=O)ccc2S1(=O)=O,-4.8%
COC(=O)c1cc2oc3ccccc3c2n1Cc1ccc(Cl)cc1,4.2%
CC(C)(C)OC(=O)N1CCC(c2c(C(=O)NCc3ccc4c(c3)OCO4)cnn2-c2ccc(F)cc2F)CC1,2.3%
CCC(=O)N1CCc2cc(CNS(=O)(=O)c3c(C)cc(C)cc3C)ccc21,-0.9%
C1=C(c2cn(-c3nc4ccccc4s3)nn2)CCCC1,-5.6%
CC(C)(C)c1ccc(C(=O)NC(Cc2c[nH]c3ccccc23)C(=O)OCC(=O)c2ccc(Cl)cc2)cc1 (centres undefined),0.4%
Cc1cc(C)cc(NC(=O)CSc2nccn2C2CCCC2)c1,-0.4%
CCc1cccc(C)c1NC(=O)CSc1nc(C)cc(C)c1C(=O)Nc1ccccc1,0.0%
CC1CCN(C(=O)CSc2nc(-c3ccc(F)cc3)cc(C(F)(F)F)n2)CC1,-4.0%
Cc1cccn2c(=O)c(C(=O)NCCc3ccccc3)c(O)nc12,3.6%
CCCN(Cc1cccs1)C(=O)Nc1ccccc1C,1.8%
COc1ccc(CNC(=O)C2CCN(C(=O)c3cnn(-c4ccccc4)c3-n3cccc3)CC2)cc1,-3.6%
CCOc1ccc2nc(N3CCN(C(=O)c4ccco4)CC3)sc2c1,-3.6%
COc1ccc(C(=O)N2c3nc(-c4ccco4)nn3C3(CCCCC3)[C@@H]3CCCC[C@@H]32)cc1OC,-1.5%
CCOC(=O)c1cc(-c2ccc(OC)cc2)n(CCC(=O)NCc2ccc(OC)cc2)c1C,-5.6%
COc1ccccc1-c1nnc(SCC(=O)c2ccc(F)cc2)n1-c1ccccc1,-1.9%
CCN(CC)S(=O)(=O)c1ccc(NC(=O)c2ccc3c(=O)n4c(nc3c2)CCCCC4)cc1,-2.0%
O=C(Nc1nnc(-c2ccccc2)s1)C1CCCN(C(=O)c2ccoc2)C1 (centres undefined),-18%
CC(C)(C)c1ccc(C(=O)NC2=NC(c3cccc(F)c3)CC(=O)N2)cc1 (centres undefined),1.2%
CC(=O)c1ccc(OC(=O)c2c(-c3ccccc3Cl)noc2C)cc1,-7.8%
COc1cccc(CNC(=O)[C@@H]2CCCN2C(=O)[C@@H]2CCCN2S(=O)(=O)c2ccc(OC)c(C)c2)c1,3.6%
CCc1nnc(SCc2nc(-c3cccc(Cl)c3)oc2C)c2cc3sc(C)cc3n12,-23%
Cc1ccc(NCc2cccn2-c2nnc(N3CCC(C(=O)NCCC(C)C)CC3)s2)cc1,1.8%
COc1cccc(N2CCN(C(=O)c3cnc4c(-c5ccc(F)cc5)c(C)nn4c3C)CC2)c1,-2.3%
O=C1NC[C@H](CCCCN2CCN(Cc3ccccc3)C(=O)C2=O)N(CCC2CCCCC2)C1=O,1.0%
Cn1cnc2c(NCc3ccccc3)nc(Cl)nc21,2.0%
Cc1ccc(-n2nc(C)c3c(C(=O)Nc4ccc(C)cc4Cl)cc(C)nc32)cc1,?
CCOc1ccc(/C=C/C(=O)Nc2sc3c(c2C(=O)OC)CCCC3)cc1,-4.3%
CCCCCCCCN1C(=O)[C@H](CC(=O)NCCC(C)C)C[C@@]2(C(=O)OCC)CCCC=C12,2.6%

# Molecules from the list above that have an NH in an aromatic ring (5):
SMILES,ClpP mod
COc1ccc(NC(=O)C(c2ccccc2F)n2c(=O)c(-c3cc4ccccc4[nH]3)nc3ccccc32)cc1 (centres undefined),-2.3%
COc1ccc(NC(=O)CSc2nc(-c3ccc(OC)cc3)cc(=O)[nH]2)cc1,-0.3%
CCCOc1ccc(-c2nc(SC)[nH]c(=O)c2C#N)cc1OC,-14%
Cc1ccc2ccc3cc(C(=O)N4CCN(c5ccccc5)CC4)nc3c2[nH]1,0.1%
CC(C)(C)c1ccc(C(=O)NC(Cc2c[nH]c3ccccc23)C(=O)OCC(=O)c2ccc(Cl)cc2)cc1 (centres undefined),0.4%

# (more compounds)
SMILES,ClpP mod
N#Cc1ccc(C(=O)Nc2ccccc2-c2nc3ccccc3s2)c(F)c1,-19%
Cc1nc2nc(SCC(=O)NC3CCCCC3)nn2c(C)c1Cc1ccccc1Cl,-11%
O=C(NCC(c1ccc2c(c1)OCO2)N1CCOCC1)C(=O)Nc1ccc(F)cc1F (centres undefined),1.9%
CCN(c1cc(C)cc(C)c1)S(=O)(=O)c1nnc(NC(=O)c2cccc(F)c2)s1,-13%
CC(=O)Nc1ccc(S(=O)(=O)Nc2cccc(-c3ccc(N4CCCCCC4)nn3)c2)cc1,-2.2%
COc1ccc(Cn2cc(CN3CC(N4CCN(CCO)CC4)CS3(=O)=O)nn2)cc1 (centres undefined),-3.2%
Cc1cccc2nc(-c3cccnc3)c(Nc3ccc(C(C)C)cc3)n12,3.7%
Cc1ccc(NC(=O)CSc2ncc(-c3ccccc3)[nH]2)cc1,-3.1%
COc1ccc2cc3cc(C(=O)N4CCN(c5ccc(C(C)=O)cc5)CC4)sc3nc2c1Cl,-7.0%
CC1=C(C(=O)Nc2ccc(C)cc2)C(c2ccc(Cl)cc2)n2nnnc2N1 (centres undefined),-3.1%
Cc1ccc(S(=O)(=O)NCCc2cn3ccsc3n2)cc1,-3.6%
Cc1ccccc1CNc1nc(N(C)C)nc2c1cnn2C,-18%
CCN(CC)c1ccc(C2C(C(N)=O)=C(C)Nc3ncnn32)cc1 (centres undefined),-5.2%
Cc1ccc(-c2nc(CCNC(=O)C(=O)Nc3ccc(F)cc3F)cs2)cc1,27%
O=C(Nc1sc2c(c1C(=O)NCc1ccco1)CCCC2)c1cc(=O)c2ccccc2o1,-1.3%
O=C1NC[C@H](Cc2ccc(O)cc2)N(C[C@@H]2CCCN2C[C@H](Cc2ccccc2)N2C[C@H](Cc3ccc(O)cc3)N(CCc3ccccc3)C(=O)C2=O)C1=O,-1.7%
CC1CN(C(=O)Nc2ccc(C(=O)NCCc3ccc(Cl)cc3)cc2)c2ccccc2S1 (centres undefined),-0.9%
CC(=O)Nc1cc(C(=O)NCc2ccccc2Cl)ccc1Sc1ccc(F)cc1,-3.0%
CCc1ccc(S(=O)(=O)c2nnn(-c3cccc(C)c3)c2N)cc1,-1.3%
CCc1ccc(NC(=O)CC(NCc2cccnc2)C(=O)O)cc1 (centres undefined),0.6%
Cc1ccc(NC(=O)c2ccc(=O)n(Cc3ccccc3C)c2)c(C)c1,-3.3%
COc1ccc(NC(=O)CC2C(=O)N(c3cccc(OC)c3)C(=O)N2CCc2cccs2)cc1 (centres undefined),-3.5%
CCN(CC)c1ccc(/C=C/c2ccccn2)cc1,2.5%
CCN(CC)C(=O)C1CCN(C(=O)c2cnn(-c3ccccc3)c2-n2cccc2)CC1,-0.1%
O=C(NCCc1ccc(F)cc1)C(=O)NCC(c1cccs1)S(=O)(=O)c1ccccc1 (centres undefined),2.2%
CCc1nnc2c3ccccc3nc(Nc3cc(C)cc(C)c3)n12,-12%
CCOc1cccc(C(=O)N(Cc2ccc(CC)cc2)C2CCS(=O)(=O)C2)c1 (centres undefined),-2.9%
CC(=O)N1c2ccc(S(=O)(=O)NCC3CCC(C(=O)Nc4ccccc4C)CC3)cc2CC1C (centres undefined),-1.4%
COc1ccccc1C(=O)Nc1ccc(-c2nc3cc(C)cc(C)c3o2)cc1,4.2%

# Part of the list above, as labelled records:
CCN(CC)c1ccc(/C=C/c2ccccn2)cc1
  ClpP mod: 2.5%
CCN(CC)C(=O)C1CCN(C(=O)c2cnn(-c3ccccc3)c2-n2cccc2)CC1
  ClpP mod: -0.1%
O=C(NCCc1ccc(F)cc1)C(=O)NCC(c1cccs1)S(=O)(=O)c1ccccc1 (centres undefined)
  ClpP mod: 2.2%

# Assay outcomes from PubChem BioAssay.
